Assay outcomes (PubChem BioAssay)
LASV entry inh: qHTS for Inhibitors of binding or entry into cells for Lassa Virus; Potency, µM (doses to about 37.9 µM), without a hit: at the highest dose activity change, negative = inhibition, actives largely listed as inhibitors; 1.2% of 300,000 active; Lassa virus pseudotype entry inhibition, cell reporter; control for the full effect not named in the record; active means well fitted inhibition curve with a large enough effect; inconclusive means small, poorly fitted or top-dose-only effect, or effect the other way; inactive means flat fitted curve, though single readings scatter; tested in HEK293 cells; also: % is scaled to controls: 0 for no effect and ±100 for the full control effect; nearly all actives have a fitted effect of over 50% in size; luciferase read-out
Cruzain inh noDet: qHTS Assay for Promiscuous and Specific Inhibitors of Cruzain (without detergent). purified cruzain, Z-FR-AMC fluorescence, no detergent. Potency, µM, for the others: max response, negative = inhibition, usual class: inhibitors. 2.3% of 200,000 active; active = well fitted curve in the direction sought with a large enough effect; inconclusive = small, poorly fitted or top-dose-only effect, or another doubt; inactive = no such curve, though single readings can be large; an effect the other way counts as inactive or inconclusive;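 also: plate controls were enzyme without inhibitor for no effect and buffer without enzyme for full effect; nearly all actives have a fitted effect of over 40% in size; top concentration of the series not given in the record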
Target sequence (P25779 123-467 limits assumed): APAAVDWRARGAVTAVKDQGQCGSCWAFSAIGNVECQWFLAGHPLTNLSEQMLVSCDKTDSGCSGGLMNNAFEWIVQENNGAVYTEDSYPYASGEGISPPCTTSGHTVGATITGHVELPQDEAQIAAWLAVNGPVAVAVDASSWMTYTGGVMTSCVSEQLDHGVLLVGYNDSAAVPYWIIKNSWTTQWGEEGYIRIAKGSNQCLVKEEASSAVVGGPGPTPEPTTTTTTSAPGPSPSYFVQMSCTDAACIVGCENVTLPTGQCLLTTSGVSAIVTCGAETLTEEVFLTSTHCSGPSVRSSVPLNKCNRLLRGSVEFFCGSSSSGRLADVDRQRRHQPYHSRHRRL
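Detergent-free condition (0.00005% Triton X-100) in acetate buffer pH 5.5 with DTT. 1.5 nM enzyme and compound were pre-mixed 15 min, then 2 uM Z-FR-AMC substrate added; reaction progress from fluorescence change between first and third reads (60 s).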
Marburg entry inh: qHTS for inhibitors of binding or entry into cells for Marburg Virus; Marburg virus pseudotyped entry inhibition, cell reporter; control for the full effect not named in the record; about a third of the inactives were read at about 46 µM; Potency, µM (highest dose often 37.8 µM), without a hit: at the highest dose activity change, negative = inhibition, usual class: inhibitors; 1.8% of 300,000 active; AID 540276, 2011; active = well fitted inhibition curve with a large enough effect; inconclusive = small, poorly fitted or top-dose-only effect, or effect the other way; inactive = flat fitted curve, though single readings scatter; tested in HEK293 cells; about a fifth of its hits are not listed in these tables; also: % is scaled to controls: 0 for no effect and ±100 for the full control effect; luciferase read-out
RE007 growth inh: qHTS Assay for Inhibitors of the HIV-1 protein Vpr; S. pombe RE007 Vpr strain, BacTiter-Glo ATP luminescence, 24 h; control for the full effect not named in the record; Potency, µM (highest dose often 92.2 µM), without a hit: at the highest dose activity change, negative = less growth; 0.21% of 360,000 active; active = well fitted falling curve with a large enough effect; inconclusive = small, poorly fitted or top-dose-only effect; inactive = no such curve, though single readings can be large or run the other way;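 also: % is scaled to controls: 0 for no effect and ±100 for the full control effect; nearly all actives have a fitted effect of over 50% in size; the assay follows cell death caused by Vpr and the record does not say whether a fall means rescue or toxicity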
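Fission yeast strain RE007, carrying one chromosomally integrated HIV-1 vpr copy, was seeded at OD 0.01 in PMG+AL medium with 23 nL pinned compound. After 24 h at 30 °C and 99% humidity, viability was read by BacTiter-Glo luminescence.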
NS1 inh: qHTS Assay for Inhibitors of Influenza NS1 Protein Function; Potency, µM (series often up to 46.1 µM), for the others: top-dose activity, positive = more growth; 0.4% of 270,000 active; AID 2326, 2010; S. cerevisiae slowed by influenza A NS1, growth recovery by OD600; also: actives are rising curves; nearly all actives have a fitted effect of over 50% in size
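Read-out: OD600 growth recovery of NS1-expressing budding yeast. Cells grown overnight at 30C in -URA glucose medium, washed, resuspended and diluted 1:100 in 2% galactose assay medium, pH 6.0. Same strain lacking NS1 served as positive control.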
StopGo reporter: High Throughput Screening for Foot and Mouth Disease Virus Antivirals | human cells with a luciferase reporter of 2A StopGo recoding; control for the full effect not named in the record | Potency, µM (titrated, usually from 57.9 µM), inactives show top-dose signal change, negative = less light | 1.2% of 410,000 active | AID 1159524, 2015; active = well fitted falling curve with a large enough effect; inconclusive = small, poorly fitted or top-dose-only effect; inactive = no such curve, though single readings can be large or run the other way; tested in HEK293T cells; also: % is scaled to controls: 0 for no effect and ±100 for the full control effect; nearly all actives have a fitted effect of over 45% in size; luciferase light after 4 h
Cruzain Triton: qHTS Assay for Promiscuous and Specific Inhibitors of Cruzain (with detergent); Cruzipain (Trypanosoma cruzi), P25779; purified cruzain, Z-FR-AMC fluorescence, 0.01% Triton; Potency, µM, for inactives: max response, negative = inhibition, actives largely listed as inhibitors; 0.43% of 200,000 active; active = well fitted curve in the direction sought with a large enough effect; inconclusive = small, poorly fitted or top-dose-only effect, or another doubt; inactive = no such curve, though single readings can be large; an effect the other way counts as inactive or inconclusive;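 also: plate controls were neutral wells for no effect and buffer without enzyme for full effect; nearly all actives have a fitted effect of over 40% in size; top concentration of the series not given in the record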
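Enzyme 1.5 nM, Z-FR-AMC 2 uM, NaOAc 100 mM pH 5.5, DTT 5 mM, Triton X-100 0.01%; 15 min RT compound preincubation; kinetic ex360/em450, 60 s delta.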
SARS PLpro yeast: qHTS of Yeast-based Assay for SARS-CoV PLP | S. cerevisiae expressing SARS-CoV PLpro, growth rescue; control for the full effect not named in the record | Potency, µM (series often up to 32.9 µM), without a hit: at the top dose activity, positive = growth rescue | 0.19% of 330,000 active; also: 0% is about no effect; nearly all actives have a fitted effect of over 55% in size; growth read by luminescence after 48 h
Numbers without * were called inactive; ? = inconclusive; . = no result given; [ ] = remark or other dose. Unless noted, calls follow the shape of the dose curve; as a rule, active means well fitted rising curve with a large enough effect; inconclusive means small, poorly fitted or top-dose-only effect; inactive means no such curve, though single readings can be large or run the other way. Potency is read from the fitted curve at half-maximal effect.

Structure | LASV entry inh | Cruzain inh noDet | Marburg entry inh | RE007 growth inh | NS1 inh | StopGo reporter | Cruzain Triton | SARS PLpro yeast
CCNC(=S)NNC(=O)c1ccc(S(=O)(=O)NCc2ccco2)cc1 | -8% | . | ? | 19% | . | 15% | . | 10%
CCN1CCCc2cc(CN(CCN3CCOCC3)C(=O)Nc3ccc(C)c(C)c3)ccc21 | -7% | 6% | ? | -6% | -9% | -26% | 3.7% | 2%
NC(=O)Nc1ccc(F)cc1 | 12% | -10% | -10% | 9% | 4% | 7% | 4.7% | -3%
CCCn1c(SCC(=O)Nc2cc(Cl)ccc2OC)n[nH]c1=O | -4% | -2% | -6% | -1% | 14% | ? | -3.6% | 2%
COc1ccc(NC(=O)CSc2ccccn2)c([N+](=O)[O-])c1 | 6% | . | ? | 25% | -2% | 41%[activator] | . | 5%
COc1ccc([N+](=O)[O-])cc1NS(=O)(=O)c1cc(C(=O)N2CCN(C)CC2)ccc1OC | -2% | . | -17% | 2% | . | 31%[activator] | . | 4%
CCOC(=O)C1=C(c2ccccc2)Nc2ncnn2C1c1cc(OC)cc(OC)c1OC (stereo not drawn) | -9% | 3% | 5% | 13% | -4% | 12% | -1.9% | 0%
CCN1CCCC1CNS(=O)(=O)c1cc(Br)cc2c1N(C(=O)C1CC1)CC2 (stereo not drawn) | -2% | -12% | -10% | -19% | 3% | 76%[activator] | 2.1% | 2%
Cc1ccc(C(=O)Nc2cccc(C(=O)O)c2)cc1S(=O)(=O)N1CCCCC1 | ? | -5% | ? | -15% | ? | -47% | -1.5% | 11%
CNC(=O)C(Sc1nc(C)nc2c1oc1ccccc12)C(C)=O (stereo not drawn) | -7% | -1% | 10% | -12% | 6% | -15% | -4.0% | 6%
O=C(c1cc(-c2cccs2)nc2ccccc12)N1CCN(CCO)CC1 | 5% | . | 1% | -12% | . | -12% | . | -8%
O=C1CN2NC(=S)N(c3ccccc3)C2=CN1c1ccc(Cl)cc1 | . | . | . | 0% | 2% | -8% | . | 0%
CCOC(=O)C1CCN(/C=C2/C(=O)NC(=S)N(c3cccc(OC)c3)C2=O)CC1 | . | . | . | 9% | 6% | 1% | . | 0%
CCN(C(=O)CSc1nc(-c2ccc(C(C)C)cc2)no1)c1cccc(C)c1 | -10%[46.1 µM] | -22% | . | . | . | -7% | -3.3% | .
Cc1[nH]c(C(=O)N/N=C/c2ccc(N(C)C)cc2)c(C)c1C(=O)N/N=C/c1ccc(N(C)C)cc1 | ? | . | ? | 2% | . | -1% | . | -5%
Cc1cccc(-n2c(C)cc(C=C3C(=O)c4ccccc4C3=O)c2C)c1 | -1% | -21% | ? | 13% | 4% | . | -3.1% | 3%
CC1(c2ccccc2Cl)NC(=O)N(CC(=O)N2CCN(S(=O)(=O)c3ccccc3)CC2)C1=O (stereo not drawn) | 19%[46.1 µM] | . | ? | 3% | . | 1% | . | 0%
S=C(c1ccc(OCc2ccccc2)cc1)N1CCCC1 | . | . | . | -17% | -16% | 57%[activator] | . | -2%
C=CCc1ccc(OCCCOc2ccc(C)c(C)c2)c(OC)c1 | 11% | -1% | ? | 14% | -1% | -8% | -1.9% | 6%
Cc1[nH]c2ccc(C(=O)OC(C)C(=O)NC3(C#N)CCCCC3)cc2c1C (stereo not drawn) | ? | . | ? | -16% | . | -3% | . | 6%
CCCCC(=O)Nc1cccc(NC(=O)c2ccc(Br)o2)c1 | 16% | 0% | -9% | -9% | -11% | 48%[activator] | -2.3% | -8%
COc1cc(CC(=O)OCc2cccc([N+](=O)[O-])c2)cc(OC)c1OC | ? | . | 3%[46.1 µM] | 6% | -18% | -23% | . | 3%
Cc1cc(C(=O)CCl)c(C)n1-c1ccon1 | ? | . | ? | -4% | . | 22µM* | . | ?
CCOC(=O)C1(C)NC(c2cc(OC)c(OC)c(OC)c2)C2C(=O)N(CC)C(=O)C21 (stereo not drawn) | 9% | 2% | 0% | 4% | 1% | 0% | 2.5% | 6%
C=Cc1ccc(Cn2c(=O)cc(C)c3c(C)nn(-c4ccccc4)c32)cc1 | 2%[46.1 µM] | -12% | . | . | . | -2% | 0.0% | .

2 records drawn at random from the list so far:
Structure | LASV entry inh | Cruzain inh noDet | Marburg entry inh | RE007 growth inh | NS1 inh | StopGo reporter | Cruzain Triton | SARS PLpro yeast
S=C(c1ccc(OCc2ccccc2)cc1)N1CCCC1 | . | . | . | -17% | -16% | 57%[activator] | . | -2%
CCOC(=O)C1CCN(/C=C2/C(=O)NC(=S)N(c3cccc(OC)c3)C2=O)CC1 | . | . | . | 9% | 6% | 1% | . | 0%

Additional compounds.
Structure | LASV entry inh | Cruzain inh noDet | Marburg entry inh | RE007 growth inh | NS1 inh | StopGo reporter | Cruzain Triton | SARS PLpro yeast
O=C(NCc1cccc2[nH]ccc12)C1CCC(=O)N(CCc2ccccc2)C1 (stereo not drawn) | 2%[46.1 µM] | . | 25%[46.1 µM] | -7% | 7% | -2% | . | 1%
S=C(c1ccccc1)N1CCCc2ccccc21 | -1% | -12% | -10% | 2% | -10% | -25% | -4.4% | -2%
COc1cccc(CNC(=O)CNC(=S)N(Cc2ccccc2)Cc2ccccc2F)c1 | -12% | . | ? | -15% | . | -18% | . | -4%
COCCNCCCOc1ccc(Br)cc1Cl | ? | -22% | ? | -13% | 11% | 9% | -3.2% | -5%
COC(=O)c1cc2ccsc2n1Cc1nc(-c2cccc(Cl)c2)oc1C | . | ? | . | 0% | 6% | 1% | -2.3% | 5%
O=C(NCCc1ccccc1)c1ccc(CSc2nc3ccncc3n2Cc2cccc(F)c2)cc1 | -20%[46.1 µM] | 15% | 12%[46.1 µM] | . | . | 8% | -1.5% | .
O=C(Cc1c(Cl)cccc1Cl)Nc1cccc(S(=O)(=O)N2CCOCC2)c1 | -21% | . | -19%[46.1 µM] | -11% | . | 47%[activator] | . | 0%
CCNc1nc2c(c(=O)[nH]c(=O)n2C)n1CCCc1ccccc1 | . | . | . | -3% | 3% | 10% | . | -5%
COc1ccc(CCNC2CCCCC2)cc1OC | -22% | . | 3%[46.1 µM] | -2% | 2% | -15% | . | -1%
Cc1ccc(S(=O)(=O)N2CCN(CC(=O)NC(=O)NCc3ccco3)CC2)cc1C | . | . | . | -7% | -15% | -10% | . | -1%
Cc1ccc(N(CC(=O)NC2CCCCC2)C(=O)CNC(=O)c2cccs2)cc1 | 11% | . | -26%[46.1 µM] | -13% | 5% | -6% | . | 2%
O=C1NC(=O)N(c2ccccc2)C(=O)/C1=C/C=C/c1ccco1 | . | . | . | 27% | 3% | ? | . | -1%
COc1cccc(C(=O)NNS(=O)(=O)c2ccc(C)cc2)c1 | 0%[46.1 µM] | . | ? | 7% | 7% | 29% | . | -2%
CCOC(=O)C1=NN(N=O)C2(CC(=O)N(c3cc(C)cc(C)c3)C2=O)C1 (stereo not drawn) | -7% | -19% | 20% | -4% | 3% | -8% | -20% | 4%
CCn1ncc(Br)c1C(=O)Nc1cc(C)on1 | . | . | . | 21% | 19% | -15% | . | 0%
CNc1nc(C)nc(-n2nc(C)cc2C)n1 | ? | 1% | ? | -10% | 0% | 17% | -2.6% | 1%
Cc1ccc(OCC(=O)Nc2ccc(OCc3cc(=O)n4ccsc4n3)cc2)cc1 | 6%[46.1 µM] | 1% | -3%[46.1 µM] | . | . | -19% | 0.3% | .
CC(C)Oc1ccc(CNC(=O)c2ccc3c(c2)N(C)CCS3)cc1 | . | . | . | -17% | 15% | 24% | . | -9%
Cc1cc(C)nc(N/C(=N\S(=O)(=O)Cc2ccccc2)Nc2ccccc2Br)n1 | 4.1µM* | -5% | 2.8µM* | 4% | 23% | 37%[activator] | -3.9% | 24%
C=CCNc1sc(C(=O)c2cccs2)c(N)c1C#N | -29% | -9% | -22% | -5% | 6% | 9% | -1.6% | 3%
NC(=O)CC(NC(=O)Cc1cccc2ccccc12)c1ccc(NCCN2CCCCC2)c([N+](=O)[O-])c1 (stereo not drawn) | . | . | . | 9% | 7% | 8% | . | 6%
O=C(c1ccc2oc(Cc3ccc(Cl)cc3)nc2c1)N1CC[C@H](O)C1 | 7%[46.1 µM] | . | 12%[46.1 µM] | 3% | -1% | 7% | . | 0%
Cc1oc2cc3oc(=O)c(CC(=O)N[C@@H](C)C(=O)NC(Cc4ccc(Cl)cc4)C(=O)O)c(C)c3cc2c1C (stereo partly drawn) | . | . | . | 12% | 17% | -18% | . | 6%
CCOC(=O)C1=C(C)NC(C)=C(C(=O)OCC)C1C(=O)OCC(=O)N(C)Cc1ccccc1 | ? | . | -31%[46.1 µM] | 8% | . | -1% | . | -8%
Nc1ccccc1SCCS(=O)(=O)c1ccc(Cl)cc1 | . | . | . | -7% | 4% | 6% | . | 0%

Just Cruzain Triton, LASV entry inh and SARS PLpro yeast, for some of the entries so far:
smiles | Cruzain Triton | LASV entry inh | SARS PLpro yeast
COC(=O)c1cc2ccsc2n1Cc1nc(-c2cccc(Cl)c2)oc1C | -2.3% | . | 5%
O=C(NCCc1ccccc1)c1ccc(CSc2nc3ccncc3n2Cc2cccc(F)c2)cc1 | -1.5% | -20%[46.1 µM] | .
O=C(Cc1c(Cl)cccc1Cl)Nc1cccc(S(=O)(=O)N2CCOCC2)c1 | . | -21% | 0%
CCNc1nc2c(c(=O)[nH]c(=O)n2C)n1CCCc1ccccc1 | . | . | -5%
COc1ccc(CCNC2CCCCC2)cc1OC | . | -22% | -1%
